nsP2pro primary = Primary qHTS for inhibitors of NSP2Pro chikungunya virus (CHIKV); Potency, µM (titrated, usually from 24.9 µM), for the others: at the highest dose activity change, negative = inhibition, most hits filed as inhibitors; actives 1.1% (n = 31,000); AID 1964107, 2024; FRET peptide cleavage, nsP2pro, fluorescence 1 h; active means well fitted inhibition curve with a large enough effect; inconclusive means small, poorly fitted or top-dose-only effect; inactive means no such curve, though single readings can be large or run the other way; further: nearly all actives have a fitted effect of over 60% in size; a reference inhibitor and vehicle were the controls
Target sequence (Q8JUX6 whole entry, looked up): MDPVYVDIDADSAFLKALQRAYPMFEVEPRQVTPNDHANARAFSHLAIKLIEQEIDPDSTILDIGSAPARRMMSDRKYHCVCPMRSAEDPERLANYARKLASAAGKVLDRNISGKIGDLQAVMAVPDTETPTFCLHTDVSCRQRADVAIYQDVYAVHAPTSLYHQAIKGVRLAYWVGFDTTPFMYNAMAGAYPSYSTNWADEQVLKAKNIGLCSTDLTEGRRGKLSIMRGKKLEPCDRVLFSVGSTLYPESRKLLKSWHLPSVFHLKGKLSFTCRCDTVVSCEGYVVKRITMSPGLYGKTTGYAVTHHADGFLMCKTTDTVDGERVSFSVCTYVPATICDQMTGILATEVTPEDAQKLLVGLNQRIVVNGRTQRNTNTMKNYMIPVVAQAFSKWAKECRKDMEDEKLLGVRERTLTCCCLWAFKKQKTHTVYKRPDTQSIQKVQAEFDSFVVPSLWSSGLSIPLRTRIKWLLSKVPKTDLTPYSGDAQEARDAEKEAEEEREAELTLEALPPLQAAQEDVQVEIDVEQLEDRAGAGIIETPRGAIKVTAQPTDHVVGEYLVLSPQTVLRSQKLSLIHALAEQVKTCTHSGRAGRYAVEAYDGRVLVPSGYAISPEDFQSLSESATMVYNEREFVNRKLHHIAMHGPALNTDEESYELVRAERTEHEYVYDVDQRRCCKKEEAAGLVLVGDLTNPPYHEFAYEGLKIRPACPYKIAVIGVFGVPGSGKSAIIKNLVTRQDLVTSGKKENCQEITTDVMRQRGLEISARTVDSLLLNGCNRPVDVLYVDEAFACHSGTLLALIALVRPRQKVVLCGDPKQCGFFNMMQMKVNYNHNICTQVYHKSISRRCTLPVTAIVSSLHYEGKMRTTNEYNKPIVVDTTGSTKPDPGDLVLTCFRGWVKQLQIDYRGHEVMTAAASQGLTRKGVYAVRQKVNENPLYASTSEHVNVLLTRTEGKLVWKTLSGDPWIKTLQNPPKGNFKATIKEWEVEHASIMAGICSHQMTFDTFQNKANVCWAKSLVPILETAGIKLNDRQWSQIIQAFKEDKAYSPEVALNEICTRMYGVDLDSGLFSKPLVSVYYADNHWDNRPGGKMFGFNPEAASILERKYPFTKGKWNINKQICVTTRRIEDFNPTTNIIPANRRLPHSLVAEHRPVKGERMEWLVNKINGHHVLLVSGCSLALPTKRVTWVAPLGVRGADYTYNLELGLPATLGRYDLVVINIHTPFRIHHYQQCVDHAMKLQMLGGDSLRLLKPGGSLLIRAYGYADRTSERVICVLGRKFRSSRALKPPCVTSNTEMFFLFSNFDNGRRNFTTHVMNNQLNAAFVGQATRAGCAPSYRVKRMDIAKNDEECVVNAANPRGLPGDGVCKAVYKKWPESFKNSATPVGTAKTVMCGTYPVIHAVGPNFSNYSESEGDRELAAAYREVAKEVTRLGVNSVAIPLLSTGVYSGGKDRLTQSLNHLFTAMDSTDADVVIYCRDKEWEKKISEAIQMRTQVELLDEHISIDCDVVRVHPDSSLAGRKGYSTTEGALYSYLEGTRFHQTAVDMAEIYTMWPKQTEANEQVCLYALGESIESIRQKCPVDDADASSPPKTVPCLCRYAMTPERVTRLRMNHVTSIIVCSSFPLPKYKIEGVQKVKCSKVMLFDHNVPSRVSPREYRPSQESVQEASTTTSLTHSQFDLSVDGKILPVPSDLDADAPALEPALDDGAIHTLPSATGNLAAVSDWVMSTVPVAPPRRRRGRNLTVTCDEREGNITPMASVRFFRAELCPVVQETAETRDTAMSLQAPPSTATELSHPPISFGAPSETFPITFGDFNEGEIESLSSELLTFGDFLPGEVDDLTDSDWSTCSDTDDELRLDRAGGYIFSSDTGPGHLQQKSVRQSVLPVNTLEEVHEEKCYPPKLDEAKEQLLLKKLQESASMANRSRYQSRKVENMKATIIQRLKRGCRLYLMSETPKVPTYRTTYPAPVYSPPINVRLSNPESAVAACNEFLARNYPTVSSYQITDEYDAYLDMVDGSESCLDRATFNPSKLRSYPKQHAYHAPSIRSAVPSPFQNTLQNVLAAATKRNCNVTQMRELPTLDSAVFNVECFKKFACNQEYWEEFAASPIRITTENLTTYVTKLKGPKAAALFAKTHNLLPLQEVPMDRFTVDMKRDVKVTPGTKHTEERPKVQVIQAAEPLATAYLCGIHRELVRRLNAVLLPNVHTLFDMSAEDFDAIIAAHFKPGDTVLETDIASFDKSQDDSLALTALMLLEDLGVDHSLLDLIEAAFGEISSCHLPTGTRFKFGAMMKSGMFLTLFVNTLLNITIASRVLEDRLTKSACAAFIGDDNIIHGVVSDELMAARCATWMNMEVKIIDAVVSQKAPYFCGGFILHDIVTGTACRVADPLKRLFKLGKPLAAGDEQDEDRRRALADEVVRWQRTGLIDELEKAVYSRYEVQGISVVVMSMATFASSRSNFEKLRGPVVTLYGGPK
Active calls of the source: *; i = inactive; ? = inconclusive; & = joins results of further samples; [ ] = dose if it differs, or a comment. On the % scale 0 is the no-effect control and ±100 the full control effect; potency means the concentration at half of the fitted maximal effect. Not all compounds are listed, so the mix of outcomes need not match the whole.

SMILES	nsP2pro primary
O=c1cc(N2CCOCC2)oc2c(NCC3CCOCC3)nccc12	?
CCN(CC)CCCCn1c(-c2ccccc2)nc2c(Nc3ccccc3)nc(C)nc21	i
Cc1ccc(C(=O)NC2CCN(C#N)CC2)cc1	-7.0%
Cc1cc(C(=O)N2CCOC(Cc3cccc(C(F)(F)F)c3)C2)nn1C (configuration not stated)	-1.6%
COC1CC(=O)C23C(=O)NC(CC(C)C)C2C(C)C(C)=CC3/C=C(\C)CCCC1O (configuration not stated)	-11.5%[10 µM]
CN1CC(C(=O)N2CCN(Cc3ccccc3)CC2)NC1=O (configuration not stated)	-3.3%[39.2 µM]
CC(C)(C)c1ccc(OCCOCCn2c(-c3ccc(Cl)cc3)nc3ccccc3c2=O)cc1	-1.7%
CC(C)CC(O)C(=O)Nc1cc(C(F)(F)F)ccc1Cl (configuration not stated)	1.1%
Cc1cc2c(s1)c1cnn(Cc3c(Cl)ccc(C)c3F)c(=O)c1n2C	i
COc1cc(O)c(C(CC(=O)N2CCCCC2)c2ccc3c(c2)OCO3)c(OC)c1 (configuration not stated)	-13.9%
CC(C)OCCCn1c(SCC(=O)Nc2ccc(F)cc2)nc2c(sc3ccccc32)c1=O	-16.6%
Cc1nnc([C@H]2CCN(C(=O)c3ccccc3)C2)o1	1.3%[39.2 µM]
O=C(c1ccccc1)N1CCN(c2nc(-c3cccs3)nc3ccccc23)CC1	i
Cc1ccc(Sc2ccc(N3CCCC(C(=O)Nc4ccc(F)cc4F)C3)nn2)cc1 (configuration not stated)	4.6%
CN(C)S(=O)(=O)c1ccc(C(=O)NC2CC(=O)N(c3ccc4c(c3)OCCO4)C2)cc1 (configuration not stated)	-22.9%
CN1CCC(C(=O)N2CCC3(CC2)CN(C(=O)c2ccc(Cl)cc2)CCO3)CC1	-1.0%
CCCCCCCCCC(=O)OC1(c2ccc(Cl)cc2)CCN(CCCC(=O)c2ccc(F)cc2)CC1	7.7%
O=C(C1CCCCC1)N1CC(=O)N2CCCc3ccccc3C2C1 (configuration not stated)	-0.4%
CC(C)(OC1OC(CO)C(O)C(O)C1O)C1CCC(O)(CO)C2CC(=O)C(C)(O)C2C1 (configuration not stated)	-7.4%[10 µM]
CCC(=O)NC(C)c1cc(Cl)c2ccccc2c1O (configuration not stated)	i
CCOC(=O)c1c(NC(=O)CCCOc2ccc(C(C)(C)C)cc2)sc2c1CCCC2	-12.9%
Cc1nn(C)c(=O)n1C1CCN(S(=O)(=O)c2cccs2)CC1	?
O=C(NC1CCCC1)C1c2ccccc2CC(=O)N1Cc1ccccc1 (configuration not stated)	i
CC(C)NC(=O)C1CCC(Cn2c(=O)c3sccc3n(CC(=O)N3CCCC3)c2=O)CC1 (configuration not stated)	-14.6%
COc1ccc(CN2C[C@@H](F)[C@@H](OCc3nc4ccncc4[nH]3)C2)cc1	i
CC1=C2CC3C(CCC3(C)O)C(C)(O)CC2OC1=O (configuration not stated)	54.5%[activator]
O=C1c2c(O)cccc2Cc2cccc(O)c21	25.7%
Cn1c(C(=O)NCCN2CCCCC2)cc2c1CCN(Cc1cccc(F)c1)C2	0.1%
CCc1ccc2oc(-c3cc(NC(=O)c4cccnc4)cc(C)c3O)nc2c1	-27.2%
FC(F)(F)CN1C2CCC1CN(c1cncc(Cl)n1)C2	-18.7%
Cc1cccc(N2CCN(C(=O)c3nn(C)c4c3CS(=O)(=O)c3ccccc3-4)CC2C)c1 (configuration not stated)	-17.5%
Cc1ccc(C)c(Cn2c(=O)c3c(nc4n3CCN4c3ccccc3)n(C)c2=O)c1	-15.2%
Nc1nc(Nc2cccc(C(F)(F)F)c2)sc1C(=O)c1ccccc1	-17.2%
COc1cccc(C2C(=O)N(C3CCCCC3)CC(=O)N2CCc2ccc(OC)c(OC)c2)c1 (configuration not stated)	-15.5%
Cc1ccc(-c2ccc(C(C)Nc3nc(-c4ccccc4C(C)C)ncc3C)cc2)cn1 (configuration not stated)	i
O=S(=O)(c1ccc2c(c1)OCCO2)N1CCN(S(=O)(=O)c2cc(F)ccc2F)CC1	-3.4%
CCNC(=O)[C@@H]1C[C@H](N)CN1C(=O)C(C)(C)Oc1ccc(C)cc1	?
Cc1cc(C)nc(NC(=S)N2CCN(c3nc4ccccc4s3)CC2)c1	-8.2%
Cc1cc(C)nc(NC(=S)N2CCN(c3ccc(F)c(F)c3F)CC2)c1	-22.6%
CCNC(=O)N1CCC(CCOC)(NS(=O)(=O)c2cccc3cccnc23)CC1	-3.3%

Three structures already listed, sorted by length of the SMILES, low to high.
SMILES	nsP2pro primary
Cc1cc(C)nc(NC(=S)N2CCN(c3ccc(F)c(F)c3F)CC2)c1	-22.6%
Cc1ccc(C)c(Cn2c(=O)c3c(nc4n3CCN4c3ccccc3)n(C)c2=O)c1	-15.2%
COc1cccc(C2C(=O)N(C3CCCCC3)CC(=O)N2CCc2ccc(OC)c(OC)c2)c1 (configuration not stated)	-15.5%

The list continues.
SMILES	nsP2pro primary
O=C(NC1CCCCC1)c1ccc(Cn2c(SCc3ccc(F)cc3)nc3cccnc32)cc1	-5.0%
Cc1c(NC(=O)c2cc(-c3ccc(Cl)cc3)on2)c(=O)n(-c2ccccc2)n1C	-7.6%
CC1=C2C[C@@]3(C)[C@@H](CCC[C@@H]3C)C[C@@]2(O)OC1=O	-27.5%
Cc1c(C)c2c(c(C)c1O)CCC(C)(C(=O)O)O2 (configuration not stated)	?
COc1ccc(C(=O)N2CCC(c3ncc(C)n3C(C)C)C2)cc1 (configuration not stated)	2.2%
COc1ccccc1OCC(=O)N(Cc1cccs1)C1CCS(=O)(=O)C1 (configuration not stated)	-15.0%
Oc1cc(-c2ccc(N3CCCCC3)nc2)cc2cccnc12	i
Cc1cnc(-c2ccccc2C2CC2)nc1NCc1ccc(-c2cccnc2)cc1	i
COc1cc(OC)cc(C(=O)Nc2ccc3nc4n(c(=O)c3c2)CCCCC4)c1	-22.7%
CCN1CCCC(OC(=O)C(c2ccccc2)c2ccccc2)C1 (configuration not stated)	-0.7%

Overlap with the part before: 2 compounds, then new ones.
SMILES	nsP2pro primary
COc1cc(OC)cc(C(=O)Nc2ccc3nc4n(c(=O)c3c2)CCCCC4)c1	-22.7%
CCN1CCCC(OC(=O)C(c2ccccc2)c2ccccc2)C1 (configuration not stated)	-0.7%
COc1ccc2c(c1)O[C@H](O[C@@H]1O[C@H](CO)[C@@H](O)[C@H](O)[C@H]1O)C(=O)N2	-8.8%
Cc1cc2n(n1)CCCN2C(=O)Nc1ccc(F)c(Cl)c1	8.3%
CC[N+](CC)(CCNC(=O)C(=O)NCC[N+](CC)(CC)Cc1ccccc1Cl)Cc1ccccc1Cl	-4.5%
CCCCCCCCCCCCNCCNCCNCC(=O)O	24.2%[10 µM]
O=S(=O)(NCC1(COc2cnccn2)C[C@@H](O)[C@@H](O)C1)c1ccc(F)cc1 (some centres not stated)	-4.9%[39.2 µM]
N#Cc1ccc(O[C@@H]2CCOC[C@H]2NC(=O)CCCn2cncn2)cc1	-2.4%
Cc1ccc(-c2nc(SCCOc3ccccc3C)n3[nH]c(=O)cc3n2)cc1	6.7%
O=C(COc1ccc(Cl)cc1)Nc1ccccc1C(=O)OCc1cc(=O)n2ccsc2n1	-17.9%
N#CN1CCC(NC(=O)c2cccc(F)c2)CC1	0.4%
CN1C(=O)C(Cc2c[nH]c3ccccc23)NC1=S (configuration not stated)	?
CCOc1ccc(-c2cccc3c2CCNC3)cc1C(N)=O	1.3%
Cc1ccnc(NC(=S)N[C@@H]2CCN(c3cccc(C(F)(F)F)c3)C2)c1	i
CCCN1CCC(N2CCCC(Cc3ccccc3)(C(=O)OCC)C2)CC1 (configuration not stated)	4.4%
CCc1cccc(NC(=O)CN(C)S(=O)(=O)c2ccc3c(c2)CCCN3C(C)=O)c1	-13.6%
COc1ccc(-n2c(=O)c3c4c(sc3n(Cc3ccc(C)cc3C)c2=O)CCC4)c(OC)c1	-9.5%
CCOCc1nc(C2CCCN2S(=O)(=O)c2cn(C)cn2)no1 (configuration not stated)	i
Cc1cccc(-c2noc(-c3ccc(N4CCCC4)c([N+](=O)[O-])c3)n2)c1	-22.0%
COc1cc(OC)c(NC(=O)C2CCN(C(=O)c3sc4nc[nH]c(=O)c4c3C)CC2)cc1Cl	-9.8%
Cc1noc(C)c1-c1cc(-c2cccc3cc[nH]c23)cn2cncc12	i
COc1ccc(Cn2c(C3CCN(C(=O)C4(c5ccccc5)CC4)CC3)n[nH]c2=O)cc1	i
COCCN(C)Cc1cn(Cc2ccccc2)nc1-c1ccc2c(c1)OCO2	-8.1%
Cc1cccc(-n2cnc3cc(C(=O)N4CCCC(C)(C)C4)ccc32)c1	-4.1%
COc1ccc(OC2CCN(S(=O)(=O)c3cccc(F)c3)CC2)cc1	-14.9%
O=C1c2ccccc2NC(c2ccc(-c3ccc(-c4ccccc4)cc3)o2)N1O (configuration not stated)	i
CC(C)(C)N1CC(C(=O)NCCCc2ccccc2F)CC1=O (configuration not stated)	-4.5%
C=CCOc1c(OC)ccc2c1CN(Cc1ccccc1)C(=O)CCN2CC(O)COc1ccc(OC)cc1 (configuration not stated)	i
Cc1cc2c(s1)c1cnn(Cc3cccc(Cl)c3F)c(=O)c1n2C	-6.2%&-0.1%
CCCNC(=O)[C@H]1O[C@@H]1C(=O)N[C@H](C(=O)N1CCC[C@@H]1C(=O)O)[C@@H](C)CC	-17.7%
N=c1ccn2c(n1)O[C@H]1[C@H](O)[C@@H](CO)O[C@H]12	?
Cc1ccc(S(=O)(=O)Nc2cnccc2C(=O)Nc2ccc(-c3nc4ccccc4[nH]3)cc2)cc1	i

Two records drawn at random from the list so far:
SMILES	nsP2pro primary
Cc1cccc(-n2cnc3cc(C(=O)N4CCCC(C)(C)C4)ccc32)c1	-4.1%
Cc1cc2c(s1)c1cnn(Cc3cccc(Cl)c3F)c(=O)c1n2C	-6.2%&-0.1%

For reference, some entries already given.
SMILES	nsP2pro primary
COc1ccc(OC2CCN(S(=O)(=O)c3cccc(F)c3)CC2)cc1	-14.9%
O=C1c2ccccc2NC(c2ccc(-c3ccc(-c4ccccc4)cc3)o2)N1O (configuration not stated)	i
CC(C)(C)N1CC(C(=O)NCCCc2ccccc2F)CC1=O (configuration not stated)	-4.5%
C=CCOc1c(OC)ccc2c1CN(Cc1ccccc1)C(=O)CCN2CC(O)COc1ccc(OC)cc1 (configuration not stated)	i

Next section:
SMILES	nsP2pro primary
COc1ccc2nc(-c3cccc(NC(C)=O)c3)sc2c1	i
CN(Cc1ccccc1C(F)(F)F)C(=O)Nc1ccccc1	-6.2%[39.2 µM]
C=C1C(=O)O[C@@H]2C3=C(C)CCC[C@]3(C)CC[C@@]12O	3.13µM*
CCN[C@H]1CN(CCCOC)S(=O)(=O)c2sc(S(N)(=O)=O)cc21	-8.6%&-15.6%&5.1%
CC(=O)C1CCC2C3CCC4=CC(=O)CCC4(C)C3CCC12C (configuration not stated)	-10.9%
CCOc1ccc(-c2cc(C(=O)NC(C)c3ccccc3)c3ccccc3n2)cc1 (configuration not stated)	-16.0%
O=S(=O)(Nc1ccc(-c2ccccc2)cc1)c1ccc(NCc2cccc(Cl)c2O)cc1	-3.3%
O=C(Nc1ncc(Cc2ccc(C(F)(F)F)cc2)s1)c1ccc(-c2ccc([N+](=O)[O-])cc2)o1	-11.4%
C=C1[C@H](OC(C)=O)[C@H]2[C@@H](OC(C)=O)C(C)C[C@]2(OC(C)=O)C(=O)[C@H](C)/C=C/C(C)(C)C(=O)[C@H](OC(=O)C(C)C)[C@H]1OC(C)=O (some centres not stated)	-7.7%[10 µM]
CN(C)CCN(Cc1ccccc1)c1ccccn1	13.3%
CN(Cc1ccco1)Cc1ccc(O)c2ncccc12	-23.6%
CC[N+](C)(C)Cc1ccccc1Br	-11.2%
O=c1n(CC2CC2)nc2n1CCN(C1CCCC1)CC2	i
Cn1nnc(-c2ccc(-c3ccc(N4C[C@H](COP(=O)(O)O)OC4=O)cc3F)cn2)n1	25.4%
O=C1c2cccc(O)c2C(=O)c2c(O)cc(CO)cc21	?
Cc1cc(-c2nnc3n2CCCCC3)c(C)n1-c1ccccn1	?
COc1ccc(CN2CCC([C@@H]3CNC[C@H]3CO)CC2)c(Cl)c1OC	-5.1%
C#CCCCn1cc(-c2cccc3c2N[C@@H](C)CC(=O)N3)cn1	0.9%
Cc1cc(NC(=O)Nc2nnc(N3CCCCCC3)s2)ccc1Br	-5.5%
O=C(O)C[C@H]1CCC(=O)[C@@H]1C/C=C\CCO	33.8%
C=C1CCC2C(C)(C(=O)OC)CCCC2(C)C1CCC(C)CC(=O)O (configuration not stated)	-10.9%
Cc1cc(-c2cnc(Nc3ccc(F)cc3)c3c2CCO3)ccn1	-23.2%[39.2 µM]
Cc1nnc(-c2cc(-c3cnn(C)c3)ccn2)n1-c1ccccc1	i
O=C1NCCN1CCN1CCC(c2cn(-c3ccc(F)cc3)c3ccc(Cl)cc23)CC1	68.1%[activator]
O=c1c2nc(Nc3cccnc3)ccc2ncn1-c1ccc(F)cc1F	i
CC/C=C\C/C=C\C/C=C\C/C=C\C/C=C\CCCC(=O)O	?
O=C(CN1C(=O)CC(c2ccccc2)Sc2ccccc21)Nc1cccc(Cl)c1 (configuration not stated)	-17.9%
CCc1ccc(NC(=O)c2cnn(-c3c(C)cccc3C)c2C2CCNCC2)cc1	-75.8%
CC(=O)OC1C(O)CC2(C)C(CCC(C)C23Cc2c(O)cc(CO)c(C=O)c2O3)C1(C)C (configuration not stated)	?
CC(=O)Nc1ccc(-c2nc3ccccc3s2)cc1	i

Assay outcomes as filed in PubChem BioAssay.
